Assay outcomes as filed in PubChem.
VDR inhibitor: blocks the human vitamin D receptor; VDR-SRC2-3 peptide fluorescence polarization, 2 h; Potency, µM, for inactives: max response, negative = inhibition, most hits filed as inhibitors; P11473; AID 504847; hit rate 0.93% among 400,000; active = well fitted inhibition curve with a large enough effect; inconclusive = small, poorly fitted or top-dose-only effect, or another doubt; inactive = no such curve, though single readings can be large or run the other way; also: series mostly up to about 120 µM
Target sequence (P11473 whole entry, looked up): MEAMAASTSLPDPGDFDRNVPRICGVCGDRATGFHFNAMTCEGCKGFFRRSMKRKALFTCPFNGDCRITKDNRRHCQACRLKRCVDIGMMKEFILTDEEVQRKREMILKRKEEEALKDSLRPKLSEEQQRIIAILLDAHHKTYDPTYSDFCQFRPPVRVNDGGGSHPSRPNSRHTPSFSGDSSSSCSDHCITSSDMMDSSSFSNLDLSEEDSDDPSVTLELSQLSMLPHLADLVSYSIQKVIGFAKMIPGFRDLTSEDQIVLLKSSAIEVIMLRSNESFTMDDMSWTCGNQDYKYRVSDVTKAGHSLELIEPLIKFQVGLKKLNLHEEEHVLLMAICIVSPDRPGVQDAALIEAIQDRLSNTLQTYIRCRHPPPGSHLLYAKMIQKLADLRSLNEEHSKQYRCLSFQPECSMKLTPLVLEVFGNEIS
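Fluorescence polarization assay measuring small-molecule disruption of VDR binding to the coregulator peptide SRC2-3. Compounds were pin-transferred (23 nl) into the reagent mix and incubated 2 h at room temperature before reading.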
Numbers without * were called inactive; ? = inconclusive; & = joins results of further samples. % is scaled to controls: 0 for no effect and ±100 for the full control effect; potency is read from the fitted curve at half-maximal effect. A portion of the library; the hit share may differ from the screen's.

SMILES	VDR inhibitor
Cc1cc(NC(=O)COc2ccc(C(C)(C)C)cc2)no1	16%
CCOc1ccc(OCCCC(=O)NCCOc2ccccc2OC)cc1	0%
Cc1ccc(NC(=O)CN2CCCC2)cc1	-3%
O=C(COC(=O)/C=C/c1ccccc1)NNC(=O)c1ccccc1F	10%
CCCCn1c(N)c(N(CCOC)C(=O)CCNC(=O)c2ccc(Cl)cc2)c(=O)[nH]c1=O	-8%
CSc1ncc(Cl)c(C(=O)N(Cc2ccccc2Cl)C2CCS(=O)(=O)C2)n1 (centres undefined)	8%
Cc1c(Cl)cccc1NC(=S)N1CCN(C(=O)c2ccco2)CC1	-26%
O=[N+]([O-])c1ccc(CN2CCN(c3ncccn3)CC2)cc1	-11%
N#C/C(=C\c1c(N2CCCCCC2)nc2ccccn2c1=O)C(N)=O	-14%
CC(C)[C@H](NC(=O)c1ccccc1F)C(=O)OCC(=O)Nc1sccc1C(N)=O	-19%
CCCN(CCC)CCNC(=O)CCC(=O)Nc1ccc2nc(N3CCN(C)CC3)cc(C)c2c1	-15%
Fc1cccc(CCN2C(=S)NC[C@@H]2CC2CCCCC2)c1	-15%
O=C(Nc1ccc(N2CCN(C(=O)c3ccco3)CC2)cc1)c1ccc(Br)cc1	-15%
O=C(O)Cn1c(O)c(C=Nc2ccccc2)sc1=S	-4%&9%
COc1cccc(CC(NC(C)=O)C(=O)NC2CCN(S(=O)(=O)c3ccc(C)cc3)CC2)c1OC (centres undefined)	-7%
O=C1CC[C@@H](CN(Cc2ccccn2)Cc2nc(Cc3cccc(C(F)(F)F)c3)no2)N1	-18%
CCC1CCCCN1CCNC(=O)c1[nH]c(C)c(C(C)=O)c1C (centres undefined)	-7%
CCOc1ccc(S(=O)(=O)N(C)CC(=O)NCc2ccccn2)cc1	-11%
COc1ccc2cc(C(=O)NCC3CCCO3)[nH]c2c1 (centres undefined)	3%
O=S(=O)(c1ccc(Cl)cc1)c1nnn2c1nc(NC1CCCCC1)c1sccc12	2%
Cn1c(=O)c2c(ncn2CC(=O)OCC(=O)Nc2cc(Cl)ccc2C#N)n(C)c1=O	16%
CCCCS(=O)(=O)CC(COc1ccccc1)OC(=O)c1ccccc1 (centres undefined)	2%
CN1CCN(S(=O)(=O)c2cccc(C(=O)NCCOc3ccccc3)c2)CC1	-2%
COc1ccc(CCNC(=O)c2c(O)nc3c(C)cccn3c2=O)cc1OC	-6%
COc1ccccc1C1/C(=C(\O)c2ccc3c(c2)OCCO3)C(=O)C(=O)N1CCCn1ccnc1 (centres undefined)	-1%
CCCc1nc2ccc(NC(=O)c3cccs3)cc2c(=O)n1Cc1ccc(Cl)cc1	-2%
COc1cc(/C=N/N2C(C)CCCC2C)cc(OC)c1O (centres undefined)	-19%
c1ccc(-c2nc(N3CCCC3)nc3ccccc23)cc1	-11%
CC(C)(C)NC(=O)C1CCC(CNS(=O)(=O)c2cccc3nsnc23)CC1 (centres undefined)	2%
O=C(NCCCO)NC(=S)c1cccc2ccccc12	-4%
O=C(COc1ccc(Cl)cc1Cl)OCn1nnc2ccccc2c1=O	-10%
O=C1CSC(c2ccccc2)N1CC(O)c1ccc([N+](=O)[O-])cc1 (centres undefined)	2%
Cc1occc1-c1nnc(SCC(=O)NC2CC2)n1C	-2%
CC1CCCC(NC(=O)COC(=O)c2n[nH]c3ccccc23)C1C (centres undefined)	-11%
Cc1ccc(C(=O)Nc2ccc(N3CCN(C(=O)c4ccco4)CC3)cc2)c(Cl)c1	0%
CC(=O)Nc1ccc(NC(=O)CSc2nncn2C)cc1	10%
CCOc1ccc(CC(=O)Nc2cccc(-c3ccc4nnc(C)n4n3)c2)cc1	-5%
O=C(Nc1cc(C(F)(F)F)ccc1N1CCOCC1)C1CCCO1 (centres undefined)	-9%
O=C(CN1C(=O)C2C3C=CC(C3)C2C1=O)N1CCc2ccccc2C1 (centres undefined)	-18%
Cc1cc(C(=O)NNc2ccc(C(C)C)cc2)n(C(C)(C)C)n1	-7%
Cc1c(Cl)cccc1NC(=O)CCC(=O)NNC(=O)c1ccco1	-12%
COc1ccccc1NC(=O)c1cc[n+]([O-])cc1	6%
COc1ccccc1NC(=O)C1=C(C)Nc2ncnn2C1c1ccccn1 (centres undefined)	-10%
CCn1cc(S(=O)(=O)Nc2cc(F)ccc2C)cn1	-9%
Cc1ccc2c(c1C)NC(C(=O)O)C1CC=CC21 (centres undefined)	25%
CCN1CCSc2ccc(C(=O)NCc3ccccc3F)cc21	-7%
Cc1cc(C)c(OCCNC(=O)c2ccccc2Sc2ccccc2C#N)c(C)c1	?
CCCC(=O)Nc1c(-c2ccccc2)c(=O)c(C)nn1-c1ccc(C)cc1	-16%
COc1ccc(Cl)cc1NC(=O)CN(C)C(=O)Cn1cnnn1	1%
C[C@@H](C(=O)O)[C@H]1C[C@]1(C)[C@H](NC(=O)OCc1ccccc1)c1ccccc1	-7%
CCCC(=O)Nc1c(-c2ccccc2OC)c(=O)c2ccccc2n1C	-7%
O=C(c1ccc2nc[nH]c2c1)N1CCN(c2cccc(C(F)(F)F)c2)CC1	-1%
C[C@@H](NC(=O)CN(c1ccccc1)S(=O)(=O)N(C)C)c1ccccc1	-7%
C[C@H](NC(=O)c1ccccc1)C(=O)Nc1nc(-c2ccccn2)cs1	7%
CCN1CCC(=NNC(=O)c2ccc(C)c([N+](=O)[O-])c2)CC1	-9%
COc1ccc(CNC(=O)/C=C/c2ccc(OCCCF)cc2)cc1	8%
CC1CN(C(=O)CN2C(=O)NC3(CCCC3)C2=O)C(=Nc2cccc(S(=O)(=O)N(C)C)c2)S1 (centres undefined)	2%
COC(=O)c1ccc2nc(-c3ccc4c(c3)OCO4)cn2c1	10%
CCc1ccc(C(=O)NNc2ccc(F)cc2F)cc1	-18%
O=C(NC1CCCCC1)C(c1ccc2ncccc2c1)N(Cc1ccco1)C(=O)c1ccc2c(c1)OCCO2 (centres undefined)	1%

(further entries)
SMILES	VDR inhibitor
CC(C)c1ccc(CN2CCC(Oc3ccc(C(=O)N4CCCC4)cc3)CC2)cc1	8%
O=C(NC(=S)N1CCOCC1)C12CCC3CC(CC(C3)C1)C2	-4%
COc1ccccc1CNc1nc2nc(C)c(Cl)c(C)n2n1	19%
CC1Sc2ccc(C(=O)OCc3ccccc3Cl)cc2NC1=O (centres undefined)	-1%
CCOc1ccc(C(=O)NCC(=O)N2CCN(c3ccccc3O)CC2)cc1	2%
COCCNC(=O)c1nn(-c2ccc(C)cc2)c(=O)c2c1c1ccccc1n2C	-2%
Cc1ccc(NC(=O)Cn2c(=O)ccc3cc(S(=O)(=O)N4CCC(C)CC4)ccc32)cc1Cl	4%
COc1ccc(NC(=O)CN2C(=O)C3(SCC(=O)N3c3cccc(OC)c3)c3ccccc32)cc1 (centres undefined)	0%
COc1ccc(C(CNC(=O)c2oc3ccc(C)cc3c2C)N2CCCCC2)cc1 (centres undefined)	-8%
CC(C)C[C@@H]1NC(=O)N(CCN2CCOCC2)C1=O	1%
O=C(Cc1ccc(S(=O)(=O)N2CCOCC2)s1)NCC1CCCCC1	-5%
O=C(CN1CCCCCC1)Nc1cc([N+](=O)[O-])ccc1Cl	10%
Cc1ccc(NC(=O)c2cccnc2C(=O)Nc2ccc(C)cc2)cc1	-18%
CCOc1ccc(C(=O)Nc2ccc(Cc3ccncc3)cc2)cc1Br	2%
CCCCOP(=O)(OCCCC)C1(C)CC(=O)CC(C)(C)C1 (centres undefined)	-14%
Cc1ccc(C)c(S(=O)(=O)c2cn(C)c3cc(N4CCCCC4C)c(F)cc3c2=O)c1 (centres undefined)	16%
O=C(CN(c1ccc(Cl)cc1)S(=O)(=O)c1ccccc1)N1CCN(c2ccccc2)CC1	1%
COc1ccc(-c2nc(CN3CCN(c4cc(C)nc(C)c4)CC3)c(C)o2)c2ccccc12	-13%
O=C(CCNS(=O)(=O)c1ccc(Br)cc1)NCCCSc1ccccc1	13%
COc1cccc(S(=O)(=O)NCC(=O)N2CCCCCC2)c1	-11%
C=CCNC(=S)Nc1c(N)n(C)c(=O)n(C)c1=O	8%
COc1cc(S(=O)(=O)N2CCN(C(=O)c3ccco3)CC2)c(OC)cc1C	-13%
Cc1cccc(NC(=O)CSc2ncnc3c2oc2ccccc23)c1	-1%
O=C(Nc1ccccc1)c1csc(-c2ccccc2)n1	8%
O=C(CSc1ncn[nH]1)Nc1ccc([N+](=O)[O-])cc1Br	-11%
CCOC(=O)Nc1ccc(S(=O)(=O)Nc2onc(C)c2C)cc1	11%
CCOC(=O)c1c2ccc(OCC(=O)NN)cc2n2ccccc12	-11%
COc1ccc(/C=C/C(=O)c2ccc(NC(=O)c3cccs3)cc2)cc1OC	7%
CC1(c2ccc(Cl)cc2Cl)NC(=O)N(CC(=O)Nc2ccc3[nH]c(=O)[nH]c3c2)C1=O (centres undefined)	-3%
CCn1cc(C(=O)NCCc2ccc(C)cc2)c(=O)c2cc(S(=O)(=O)N3CCC(C)CC3)ccc21	-3%
COc1cccc(CNS(=O)(=O)c2ccc3c(c2)CCN3C(=O)C2CC2)c1	-8%
CCOc1ccccc1N1CCN(C(=O)C(F)(F)F)CC1	-19%
COC(=O)c1ccc(CN2C(=O)NC(Cc3c[nH]c4ccccc34)C2=O)cc1 (centres undefined)	-12%
O=C(COc1ccccc1)NCC(c1ccco1)N1CCCCC1 (centres undefined)	5%
N#CCCn1c(=O)c(-c2ccccc2)nc2cnc(Oc3cccc(Cl)c3)nc21	-3%
Cc1cccc(C)c1NC(=O)CN	6%
O=[N+]([O-])c1cc(C(F)(F)F)ccc1NCCCCNS(=O)(=O)c1ccc2ccccc2c1	23%
Cn1c(N)c(-c2nc3cccnc3n2C)sc1=S	18%
Cc1ccc(S(=O)(=O)N2CCC(C(=O)Nc3ccccc3N3CCCC3)CC2)cc1	-27%
CCN(C(=O)c1cc2c(=O)[nH]c3ccc(C)cc3c2s1)c1ccc(OC)cc1	0%
COc1ccc(-n2ccn(CC(=O)Nc3ccc(C)cc3C)c(=O)c2=O)cc1	5%
CCN(CC)S(=O)(=O)c1ccc(N2CCOCC2)c(NC(=O)COc2ccccc2)c1	-12%
COC(=O)c1ccc2[nH]c3c(c2c1)CC(C)CC3 (centres undefined)	?
CC(C)NC(=O)CC(=O)N/N=C\c1ccccc1C(=O)O	-9%
CCOc1cc(C(c2c(C)[nH][nH]c2=O)c2c(C)[nH][nH]c2=O)cc([N+](=O)[O-])c1O	-13%
COCCn1c(SCC(=O)c2ccc(F)cc2)nc2cc(C(=O)NC3CCCC3)ccc2c1=O	8%
CCc1ccc(N2CC(C(=O)NCC(C)(C)N3CCOCC3)CC2=O)cc1 (centres undefined)	-29%
Cc1cc(OCc2cc(C(=O)N(C)CC3CCOCC3)no2)cc(C)c1Cl	?
Oc1ccc(-c2csc(Nc3cccnc3)n2)cc1	-4%
O=C(Cn1cncn1)N/N=C/c1cccc(Cl)c1	11%
CCN(CC(=O)NC1CCS(=O)(=O)C1)S(=O)(=O)c1ccc(Cl)c(C(F)(F)F)c1 (centres undefined)	-17%
Cc1cc(C)n2nc(C(=O)OCC(=O)NNC(=O)c3ccccc3)nc2n1	4%
Cc1ccc(S(=O)(=O)Nc2nc(C)c(NC(=O)OCCCl)s2)cc1	89µM*
CC(C)(Oc1ccc(F)cc1)C(=O)OCC(=O)c1ccc(S(C)(=O)=O)cc1	-16%
COc1ccc(CNC(=O)Nc2ccc(C)cc2C)cc1	-18%
COc1ccc(NC(=O)C(Cc2ccccc2)n2cccc2)cc1 (centres undefined)	-10%
COC(=O)[C@]1(CC(C)C)N[C@H](c2ccc(-c3ccccc3)cc2)[C@@H]2C(=O)N(C)C(=O)[C@@H]21	-17%
CN(Cc1nc2ccccc2c(=O)[nH]1)Cc1nc2ccsc2c(=O)[nH]1	-19%
Cn1c(=O)[nH]c(=O)c2c1nc(CN1CCN(c3ccccc3F)CC1)n2CCCc1ccccc1	6%
O=C(COC(=O)CNC(=O)C1CCCCC1)Nc1ccc(Br)cc1Br	-20%

New compounds follow:
SMILES	VDR inhibitor
CC(C)CC(=O)N1CCC(O)(CS(=O)(=O)Cc2ccccc2)CC1	-9%
Cc1cc(C)cc(OCC(=O)Nc2ccccc2N2CCCCC2)c1	4%
COc1ccc(Cl)cc1NC(=O)CN(C)C(=O)Cc1ccc(-c2ccccc2)cc1	16%
CCOC(=O)c1ccc2c(c1)n(CCCS(=O)(=O)[O-])c(/C=C/c1ccc(Cl)cc1)[n+]2CC	-14%
CCOC(=O)c1ccc(NC(=O)CSc2nnc3c4ccccc4n(CC)c3n2)cc1	2%

Gathered by group: the entries above with an NH in an aromatic ring
SMILES	VDR inhibitor
CCCCn1c(N)c(N(CCOC)C(=O)CCNC(=O)c2ccc(Cl)cc2)c(=O)[nH]c1=O	-8%
CCC1CCCCN1CCNC(=O)c1[nH]c(C)c(C(C)=O)c1C (centres undefined)	-7%
COc1ccc2cc(C(=O)NCC3CCCO3)[nH]c2c1 (centres undefined)	3%
CC1CCCC(NC(=O)COC(=O)c2n[nH]c3ccccc23)C1C (centres undefined)	-11%
O=C(c1ccc2nc[nH]c2c1)N1CCN(c2cccc(C(F)(F)F)c2)CC1	-1%
O=C(CSc1ncn[nH]1)Nc1ccc([N+](=O)[O-])cc1Br	-11%
CC1(c2ccc(Cl)cc2Cl)NC(=O)N(CC(=O)Nc2ccc3[nH]c(=O)[nH]c3c2)C1=O (centres undefined)	-3%
COC(=O)c1ccc(CN2C(=O)NC(Cc3c[nH]c4ccccc34)C2=O)cc1 (centres undefined)	-12%
CCN(C(=O)c1cc2c(=O)[nH]c3ccc(C)cc3c2s1)c1ccc(OC)cc1	0%
COC(=O)c1ccc2[nH]c3c(c2c1)CC(C)CC3 (centres undefined)	?
CCOc1cc(C(c2c(C)[nH][nH]c2=O)c2c(C)[nH][nH]c2=O)cc([N+](=O)[O-])c1O	-13%
CN(Cc1nc2ccccc2c(=O)[nH]1)Cc1nc2ccsc2c(=O)[nH]1	-19%
Cn1c(=O)[nH]c(=O)c2c1nc(CN1CCN(c3ccccc3F)CC1)n2CCCc1ccccc1	6%

2 successive records from above, quoted:
SMILES	VDR inhibitor
COc1ccc(Cl)cc1NC(=O)CN(C)C(=O)Cc1ccc(-c2ccccc2)cc1	16%
CCOC(=O)c1ccc2c(c1)n(CCCS(=O)(=O)[O-])c(/C=C/c1ccc(Cl)cc1)[n+]2CC	-14%
